# Compound activity from PubChem.
# EBNA-1 inh: EBNA-1 DNA-binding inhibitors, primary screen, biochemical, fluorescence polarization | inhibition, % at 14.8 µM | 0.34% of 300,000 active | AID 1950, 2009; in the data active = inhibition above about 28%
# LYPLA2 counter: LYPLA2 inhibitors, primary screen, counter-screen for PME1 inhibitor project, biochemical, fluorescence polarization, FP-Rh probe ABPP. recombinant LYPLA2. inhibition, % at 5.9 µM. Acyl-protein thioesterase 2 (Homo sapiens), O95372. 0.38% of 320,000 active;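 active = inhibition above the screen-wide mean plus 3 SD, limit set per campaign, cut at about 26% in these data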;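 note: 0% = LYPLA2 with DMSO and 100% = wells lacking LYPLA2 enzyme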
# Target sequence (O95372 whole entry, looked up): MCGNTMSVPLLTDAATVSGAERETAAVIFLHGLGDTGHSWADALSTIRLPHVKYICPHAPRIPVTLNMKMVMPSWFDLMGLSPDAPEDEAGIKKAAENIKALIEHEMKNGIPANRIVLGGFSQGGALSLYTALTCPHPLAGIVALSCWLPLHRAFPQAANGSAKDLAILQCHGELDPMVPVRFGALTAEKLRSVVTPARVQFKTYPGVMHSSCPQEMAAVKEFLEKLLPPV
# PAFAH1B3 inh: PAFAH1B3 enzyme inhibitors, primary screen, biochemical, fluorescence polarization, human | 0.28% of 340,000 active | Platelet-activating factor acetylhydrolase IB subunit alpha1 (Homo sapiens), Q15102 | inhibition, % at 3.39 µM | recombinant PAFAH1B3, FP-rhodamine probe | AID 492972, 2010;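 active = inhibition above the screen-wide average of all tested compounds plus 3 SD, cut at about 25% in these data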;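 note: 0% = enzyme with DMSO only and 100% = wells lacking PAFAH1B3 protein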
# LYPLA1 counter: LYPLA1 inhibitors, primary screen, counter-screen for PME1 inhibitor project, biochemical, fluorescence polarization, FP-Rh probe ABPP | inhibition, % at 5.9 µM | recombinant LYPLA1 | 0.16% of 320,000 active | AID 2174, 2009 | Acyl-protein thioesterase 1 (Homo sapiens), O75608;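 active = inhibition above the mean of all tested compounds plus 3 SD, set per campaign, cut at about 14% in these data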;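 note: inhibitors block serine hydrolase probe labeling of LYPLA1 so polarization falls; 0% = enzyme with DMSO and 100% = wells lacking LYPLA1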
# Target sequence (O75608 whole entry, looked up): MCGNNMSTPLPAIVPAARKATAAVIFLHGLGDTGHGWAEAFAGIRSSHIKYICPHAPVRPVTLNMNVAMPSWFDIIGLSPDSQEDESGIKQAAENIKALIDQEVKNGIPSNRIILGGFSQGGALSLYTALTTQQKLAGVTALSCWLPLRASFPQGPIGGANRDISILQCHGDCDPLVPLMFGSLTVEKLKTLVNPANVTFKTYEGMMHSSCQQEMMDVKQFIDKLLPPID
# PAD4 inh: human PAD4 inhibitors, primary screen, biochemical, fluorescence polarization, 1536-well format | Protein-arginine deiminase type-4 (Homo sapiens), Q9UM07 | recombinant PAD4, RCA probe fluorescence polarization | inhibition, % at 6.36 µM | 0.41% of 330,000 active;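 active = percent inhibition above a cutoff equal to the mean of all tested compounds plus 3 SD, cut at about 15% in these data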;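 note: 0% = PAD4 with RCA probe and DMSO and 100% = probe without PAD4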
# GSTO1 counter: inhibitors of recombinant GSTO1, primary screen, counter-screen for RBBP9 inhibitor project, biochemical, fluorescence polarization; activity-based probe fluorescence polarization; inhibition, % at 5.96 µM; 1.1% of 300,000 active; AID 1974, 2009;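 active = inhibition above the campaign mean inhibition plus 3 SD, cut at about 35% in these data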;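 note: 0% = GSTO1-1 with DMSO and 100% = wells lacking GSTO1-1 enzyme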
# Target sequence (P78417 whole entry, looked up): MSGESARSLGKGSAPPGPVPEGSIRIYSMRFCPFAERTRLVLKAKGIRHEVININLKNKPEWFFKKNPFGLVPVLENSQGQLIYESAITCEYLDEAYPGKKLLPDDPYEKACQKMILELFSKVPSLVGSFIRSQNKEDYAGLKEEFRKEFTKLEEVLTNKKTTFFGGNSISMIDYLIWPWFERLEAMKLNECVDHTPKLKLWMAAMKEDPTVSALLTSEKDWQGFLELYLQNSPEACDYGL
# PAFAH2 inh: PAFAH2 enzyme inhibitors, primary screen, biochemical, fluorescence polarization, human; Platelet-activating factor acetylhydrolase 2, cytoplasmic (Homo sapiens), Q99487; inhibition, % at 3.39 µM; 0.99% of 340,000 active; recombinant PAFAH2, FP-rhodamine activity probe; AID 492956, 2010;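 active = inhibition above the mean over all tested compounds plus 3 SD, cut at about 30% in these data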;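 note: inhibitors block probe labeling of enzyme so polarization drops; 0% = enzyme with DMSO and 100% = wells lacking PAFAH2 protein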
# ZTA counter: blocks Epstein-Barr virus ZTA, an EBNA-1 counter-screen. AID 2234. 0.15% of 320,000 active. ZTA-DNA binding, fluorescence polarization. inhibition, % at 11 µM. P03206; in the data active = inhibition above about 33%
# Target sequence (P03206 whole entry, looked up): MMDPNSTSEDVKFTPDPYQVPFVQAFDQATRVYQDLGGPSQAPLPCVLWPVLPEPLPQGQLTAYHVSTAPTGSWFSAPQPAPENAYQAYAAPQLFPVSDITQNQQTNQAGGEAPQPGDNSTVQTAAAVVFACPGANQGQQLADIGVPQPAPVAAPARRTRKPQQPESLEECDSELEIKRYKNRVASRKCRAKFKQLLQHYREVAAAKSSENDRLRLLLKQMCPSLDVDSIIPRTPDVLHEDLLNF
# * marks the source's active call; other numbers are inactive results; nt = no result given. Only part of the results is shown; rates above refer to the full screens.
SMILES,EBNA-1 inh,LYPLA2 counter,PAFAH1B3 inh,LYPLA1 counter,PAD4 inh,GSTO1 counter,PAFAH2 inh,ZTA counter
Cc1occc1-c1nnc(SCC(=O)NC(C)(C)C)n1CC(C)C,7,-2,2,2,3,0,10,-8
CC1(C)CC(NC(=O)COc2ccc3ccccc3c2)CC(C)(C)N1,12,-4,6,-3,-1,1,3,9
CC(=O)Nc1ccc(S(=O)(=O)NCC(=O)OCC(=O)Nc2sccc2C(N)=O)cc1,nt,0,12,-1,-5,nt,-5,0
COCCN1C(=O)c2[nH]nc(-c3ccccc3O)c2C1c1ccc(OC)cc1 (configuration not stated),-3,2,0,0,0,-2,-1,6
Cc1cc(C)cc(N(C(=O)c2ccccn2)C(C(=O)NC2CCCCC2)c2cccs2)c1 (configuration not stated),-13,-4,8,17*,-1,12,12,-21
CC1CCCC(NC(=O)CCC(=O)N2CCOc3ccccc32)C1C (configuration not stated),-9,-10,-2,-4,1,27,6,7
COc1ccccc1-n1c(SCC(=O)NC(C)(C)C)nnc1-c1ccco1,-10,3,-4,-1,-3,-2,-3,-8
COc1cc2nc(NCCCN3CCN(C)CC3)n3nc(-c4ccccc4)nc3c2cc1OC,3,-13,4,-2,-2,-16,-6,9
CC(C)Cn1c2c(c(O)c(C(=O)Nc3ncccc3O)c1=O)CCCC2,1,0,4,1,-4,6,10,-3
Cc1ccc2c(c1)N(C(=O)CCC(=O)NCCCN1CCC(Cc3ccccc3)CC1)CCO2,-4,-4,-7,-2,0,1,2,5
Cc1cccc(C(=S)N2CCOCC2)n1,nt,-1,7,2,-3,nt,8,-2
O=C(/C=C/c1ccccc1)Oc1coc(CSc2ncccn2)cc1=O,-9,4,2,-2,3,-3,-4,6
CCN(CC)S(=O)(=O)c1cccc(NC(=O)COC(=O)C2=COCCO2)c1,nt,-5,15,1,-3,nt,30*,-4
CC(=O)c1ccc(NC(=O)C2CCCN(S(=O)(=O)c3cccc4nonc34)C2)cc1 (configuration not stated),-6,4,7,4,-2,1,-2,-9
Cc1ccc(N(C(=O)c2csnn2)C(C(=O)NC2CCCCC2)c2ccccn2)cc1 (configuration not stated),-8,4,-3,3,0,4,0,-3
Cc1cc(N)n(-c2ccc(S(=O)(=O)N3CCOCC3)cc2[N+](=O)[O-])n1,4,12,-2,1,-4,0,-7,7
Brc1ccc(-c2ccc(CNCc3ccccn3)o2)cc1,-1,5,8,1,-5,-1,10,-8
CCOC(=O)/C(C#N)=C/c1ccc(OCC(=O)Nc2ccc(C)c(C)c2)c(OC)c1,-3,6,7,1,0,4,-5,3
C/C(=C\C(=O)c1ccc(Cl)cc1)Nc1ccc(Br)cc1,3,1,0,1,-2,-1,0,-10
CC(=O)Nc1ccc(S(=O)(=O)Nc2nc3ccccc3nc2Nc2cccc(O)c2)cc1,-3,1,7,-4,0,-2,0,2
Cc1c(/C=N/NC(=O)CNc2ccccc2)c2ccccn2c1C(=O)c1ccccc1,-8,-1,0,-12,2,2,-4,14
Cc1ccc(S(=O)(=O)C(C#N)c2nc3ccccc3nc2N2CCCC2)cc1C (configuration not stated),-3,-6,-3,0,-11,51*,6,-1
CCc1cc2ccc(C)cc2nc1SCC(=O)Nc1cc(C)on1,7,-4,10,-8,-4,-2,-3,13
COC(=O)c1cc(=O)n(Cc2ccco2)c(=Nc2ccc(F)c(Cl)c2)s1,-2,-28,5,-10,-1,7,-3,-16
Cc1cc(N2CCN(C)CC2)nc2ccc(NC(=S)N3CCN(c4ccc(F)cc4)CC3)cc12,-5,4,-4,4,-3,12,3,-6

# One compound at a time, from the list above. Screens in order: EBNA-1 inh, LYPLA2 counter, PAFAH1B3 inh, LYPLA1 counter, PAD4 inh, GSTO1 counter, PAFAH2 inh, ZTA counter
# CC(=O)c1ccc(NC(=O)C2CCCN(S(=O)(=O)c3cccc4nonc34)C2)cc1 (configuration not stated) as listed: -6, 4, 7, 4, -2, 1, -2, -9
# CC1(C)CC(NC(=O)COc2ccc3ccccc3c2)CC(C)(C)N1 as listed: 12, -4, 6, -3, -1, 1, 3, 9
# C/C(=C\C(=O)c1ccc(Cl)cc1)Nc1ccc(Br)cc1 as listed: 3, 1, 0, 1, -2, -1, 0, -10
# Cc1ccc2c(c1)N(C(=O)CCC(=O)NCCCN1CCC(Cc3ccccc3)CC1)CCO2 as listed: -4, -4, -7, -2, 0, 1, 2, 5

# Additional records follow:
SMILES,EBNA-1 inh,LYPLA2 counter,PAFAH1B3 inh,LYPLA1 counter,PAD4 inh,GSTO1 counter,PAFAH2 inh,ZTA counter
COc1ccc(C(=S)N2CCOCC2)cc1OC(=O)c1ccc(C)cc1,-7,2,-2,-2,-3,-3,8,17
Nc1c(-c2cccc(Cl)c2)cnn1-c1cccc([N+](=O)[O-])c1,-5,3,16,-1,1,-7,5,-6
O=C(NC1CCN(Cc2ccccc2)CC1)C1CCN(c2nnc(-n3cccc3)s2)CC1,6,-2,-1,-5,0,3,4,-9
C=CCN1C(c2ccc(Br)cc2)=CS/C1=C(\C#N)c1nnc(N2CCOCC2)n1-c1ccccc1,nt,nt,8,nt,nt,nt,7,nt
CCCCN1C(=O)c2ccc(C(=O)OCC(=O)N3CCN(c4ccccc4)CC3)cc2C1=O,nt,-2,0,1,-6,nt,-3,7
CN1CCN(CCCNC(=O)CCC(=O)N2CCOc3ccccc32)CC1,-15,2,0,1,-2,-6,2,7
Cc1c(C=NNC(=O)c2ccc(Br)cc2)c2ccccn2c1C(=O)c1ccncc1,nt,nt,2,nt,-3,nt,-6,nt
Cc1ccc(/C=C/S(=O)(=O)NCC(=O)OCC(=O)N2CC(=O)Nc3ccccc32)cc1,-6,-2,2,2,-1,10,-1,-8
CCOCC(=O)N1CCN(c2ccc(F)cc2)CC1,-7,-5,11,3,-6,13,-4,0
Oc1nc(Nc2ccc(F)cc2)sc1/C=C1\C=Nc2ccccc21,-8,-8,16,-10,-5,-28,5,-29
CCN(CC)S(=O)(=O)c1cccc(NC(=O)COC(=O)c2ccc(Br)o2)c1,2,-2,-1,0,-1,4,4,2
CCOc1cc(/C=N/NC(=O)CN2CCOCC2)ccc1OCc1ccccc1,6,3,0,3,5,0,-2,10
O=C(CN1CCC(NC(=O)c2cccc(F)c2)CC1)NCc1cccs1,4,-4,-7,-3,-1,10,-9,-11
COc1cc(/C=C(\C#N)c2nc3ccccc3[nH]2)c([N+](=O)[O-])cc1OCc1ccccc1,-5,-32,-25,-18,-2,3,-12,-7
NC(=O)c1ccsc1NC(=O)COC(=O)/C=C/c1ccccc1,1,-6,4,-4,-3,-9,9,10
O=C(NN=Cc1c(F)c(F)c(F)c(F)c1F)c1ccc(NS(=O)(=O)c2cccs2)cc1,nt,nt,3,nt,-8,nt,4,nt
Cc1ccc(/C=C2/Sc3ccc(C(=O)N4CCN(C)CC4)cc3NC2=O)cc1,-9,9,4,6,-1,-187,-2,-14
O=C(CCSc1ccc(Cl)cc1)N1CCN(c2ccc(O)cc2)CC1,4,11,-4,4,4,19,12,-12
COc1ccc(NC(=O)CSc2nnc(Cc3cccs3)n2C)cc1,-13,1,-2,-2,-1,-12,7,-11
CCOC(=O)N1CCN(C(=O)c2ccc3c(c2)N(Cc2ccc(F)cc2)CCS3)CC1,1,10,6,1,2,4,0,3
O=C(CSc1ncnc2nc[nH]c12)N1CCN(c2ccc(Cl)cc2)CC1,-1,4,-1,-1,-4,13,6,8
COc1ccc(Cl)cc1NC(=O)CSc1sc2c(O)cc(=O)[nH]c2c1C#N,5,-28,4,-21,-13,-6,-9,16
CCOC(=O)[C@@H](C)NS(=O)(=O)N(Cc1ccccc1)[C@H](C(=O)OC)C(C)C,nt,0,-2,1,3,nt,4,-3
COCCCNc1nc2ccccc2nc1NS(=O)(=O)c1ccc(C)c(C)c1,-4,-1,4,2,2,-2,-4,-1
O=C(CN1C(=O)NC(c2ccccc2)(c2ccccc2)C1=O)Nc1ccc2[nH]c(=O)[nH]c2c1,-10,-2,0,-5,-3,-28,-5,-10

# Looked up by structure from the list above, 7 records:
SMILES,EBNA-1 inh,LYPLA2 counter,PAFAH1B3 inh,LYPLA1 counter,PAD4 inh,GSTO1 counter,PAFAH2 inh,ZTA counter
COc1cc(/C=C(\C#N)c2nc3ccccc3[nH]2)c([N+](=O)[O-])cc1OCc1ccccc1,-5,-32,-25,-18,-2,3,-12,-7
CCOC(=O)[C@@H](C)NS(=O)(=O)N(Cc1ccccc1)[C@H](C(=O)OC)C(C)C,nt,0,-2,1,3,nt,4,-3
Cc1ccc(/C=C2/Sc3ccc(C(=O)N4CCN(C)CC4)cc3NC2=O)cc1,-9,9,4,6,-1,-187,-2,-14
Oc1nc(Nc2ccc(F)cc2)sc1/C=C1\C=Nc2ccccc21,-8,-8,16,-10,-5,-28,5,-29
O=C(CCSc1ccc(Cl)cc1)N1CCN(c2ccc(O)cc2)CC1,4,11,-4,4,4,19,12,-12
CCN(CC)S(=O)(=O)c1cccc(NC(=O)COC(=O)c2ccc(Br)o2)c1,2,-2,-1,0,-1,4,4,2
CCOC(=O)N1CCN(C(=O)c2ccc3c(c2)N(Cc2ccc(F)cc2)CCS3)CC1,1,10,6,1,2,4,0,3

# A stretch from the list above:
SMILES,EBNA-1 inh,LYPLA2 counter,PAFAH1B3 inh,LYPLA1 counter,PAD4 inh,GSTO1 counter,PAFAH2 inh,ZTA counter
Cc1ccc(/C=C/S(=O)(=O)NCC(=O)OCC(=O)N2CC(=O)Nc3ccccc32)cc1,-6,-2,2,2,-1,10,-1,-8
CCOCC(=O)N1CCN(c2ccc(F)cc2)CC1,-7,-5,11,3,-6,13,-4,0

# The listing continues.
SMILES,EBNA-1 inh,LYPLA2 counter,PAFAH1B3 inh,LYPLA1 counter,PAD4 inh,GSTO1 counter,PAFAH2 inh,ZTA counter
Cc1cc(N2CCN(C)CC2)nc2ccc(NC(=S)N3CCN(c4ccc(Cl)cc4)CC3)cc12,-11,0,-6,0,-1,-8,-2,7
COc1ccc(-n2c(SCC(=O)Nc3ccccc3)nnc2-c2ccoc2C)cc1,-18,1,-2,0,-7,-3,13,11
CC1CN(c2ccc(Oc3ccccc3)cc2)c2nc3c(c(=O)n(CC(N)=O)c(=O)n3C)n2C1 (configuration not stated),-11,3,7,2,3,2,3,1
Cc1nnc(C)c2c(C)n(Cc3ccc4c(c3)OCO4)c(C)c12,2,7,6,-2,1,1,11,2
COc1cc(/C=C2\SC(=Nc3ccccc3OC)NC2=O)ccc1O,-2,-2,5,-3,-4,-4,12,-7
C=CCn1c(NCCc2ccccc2)nc2c1c(=O)n(C)c(=O)n2C,-15,8,-1,0,0,-4,1,-9
Cn1c(=O)[nH]c(=O)c2c1nc1n2CCCN1Cc1ccccc1,3,1,nt,1,1,-4,nt,-8
Clc1ccc(/C=N/Nc2nnc(-c3ncc[nH]3)c3ccccc23)cc1,2,-6,8,-4,-3,1,-8,2
Cc1ccc(C2=NN(CC(=O)NCCN(CC(C)C)CC(C)C)C(=O)CC2)cc1,-6,2,0,3,-1,-4,4,-25
